Screening data: PubChem, National Center for Advancing Translational Sciences (NCATS)
PK Bst = pyruvate kinase (B. stearothermophilus) modulation; partly purified Bacillus stearothermophilus pyruvate kinase, luminescence ATP production; ribose 5-phosphate activator present at AC10; Potency, µM; hit rate 1.2% among 51,000; in the data active means potency below about 11 µM; inconclusive means mostly about 12 µM to 25 µM; inactive means weaker than that;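 the screen sought inhibitors and activators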;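 also: potency is read from the fitted curve at half-maximal effect; scaled between full activation by ribose 5 phosphate and full inhibition by luteolin; about four in five hits inhibit and the cells do not say which; series up to 57 µM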
TsaE inh = YjeE (TsaE) inhibition, E. coli | P0AF67 | purified YjeE, fluorescence polarisation of a bound ADP probe | Potency, µM | hit rate 0.05% among 71,000 | AID 605; active = well fitted falling curve; inconclusive = weaker or top-dose-only fall, or a rising curve; inactive = flat or poorly fitted curve;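 also: top concentration of the series not given in the record; excess ADP was the control for the full effect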
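Fluorescence polarization of a BODIPY Texas Red–ADP probe (2 uM) bound to purified YjeE (10 uM) was read after 15 min room-temperature incubation with compounds. Loss of polarization marks inhibitors; ADP serves as titrated control.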
Starred values were filed as active, the others as inactive; i = inactive; u = inconclusive; x = no result given.

SMILES	PK Bst	TsaE inh
COc1ccc(CCn2c(-c3ccco3)nc3oc4ccccc4c(=O)c3c2=O)cc1	>57	i
CCCNC(=O)NC1C(NC(=O)NCCC)N(C)C(=O)N1C (centres undefined)	>57	i
O=C(CSc1nnc(COc2cccc3ccccc23)o1)N1CCN(C(=O)c2ccco2)CC1	>57	i
CCCCCn1c(CNC(=O)COC)nc2ccccc21	>57	i
CCN(CC)S(=O)(=O)c1ccc2c(c1)nc(CCC(=O)OCC(=O)N1CCc3ccccc31)n2C	>57	i
CCOC(=O)n1ccn(C)c1=S	x	i
CC1CC1C(=O)OCC(=O)NCc1ccccc1Cl (centres undefined)	>57	i
O=C1c2ccccc2C(=O)N1CCC(c1ccc(F)cc1)c1ccco1 (centres undefined)	>57	i
O=C(Nc1nccs1)C1CCCN(S(=O)(=O)c2cccnc2)C1 (centres undefined)	x	i
O=C(Nc1cnccn1)C1c2ccccc2Oc2ccccc21	>57	i
O=C(O)c1ccccc1-c1ccccc1C(=O)Nc1ccc2c(c1)[nH]c(=O)c1ccccc12	x	i
CCCS(=O)(=O)N1CCC(C(=O)NCC2CCCO2)CC1 (centres undefined)	>57	i
c1ccc(C2C3=C(CCCC3)Nc3ncnn32)cc1 (centres undefined)	>57	i
O=C1CCC(c2ccccc2)N1C(=O)c1cccnc1 (centres undefined)	>57	i
CC(=O)N(c1ccccc1)c1c(F)c(F)c(F)c(F)c1F	>57	i
COc1ccc2nc(Nc3nc(C)c(C(C)=O)s3)sc2c1	x	i
CCOC(=O)CSC1=C(C#N)C(c2ccco2)C(C(=O)Nc2cccc(C(F)(F)F)c2)=C(C)N1 (centres undefined)	>57	i
CCNc1cccc2c1C(=O)N(C)C2=O	x	i
CCOCCCNC(=O)c1cn(C)c(=O)c2cc(OC)c(OC)cc12	>57	i
COC(=O)N/C(C)=C1/NC(=O)c2ccccc2C(c2ccccc2)N1 (centres undefined)	>57	i
Cn1cc(S(=O)(=O)N2CCC(Cc3ccccc3)CC2)c(=O)n(C)c1=O	x	i
CCn1cc(C(=O)NCc2ccc3c(c2)OCO3)c2cc(OC)c(OC)cc2c1=O	>57	i
COc1cc(C)c(CNc2ccc(OC)c(OC)c2)cc1C	x	i
Cn1c(=O)c2c(SC3CCCC3)nc(CC(C)(C)C)nc2n(C)c1=O	x	i
c1cncc(-c2nc(NCc3ccco3)c3ccccc3n2)c1	>57	i
N#Cc1nc(Cc2ccccc2)oc1N1CCN(c2cccc(Cl)c2)CC1	>57	i
CC(CCO)Nc1nc2c([nH]1)c(=O)n(C)c(=O)n2C (centres undefined)	>57	i
O=C(Nc1nccs1)c1nc(-c2ccccc2)n(-c2ccccc2)n1	>57	i
Cc1ccc2cc(CCNC(=O)c3ccco3)c(=O)[nH]c2c1C	x	i
Cc1ccccc1C(=O)N1CCN(c2nc(N3CCOCC3)nc(N3CCOCC3)n2)CC1	>57	i
CN(C)c1nc(SCCOC(=O)COc2ccc(Cl)cc2Cl)nc(N(C)C)n1	>57	i
Cc1cccc(N2CCN(C(=O)C3CCCN(S(=O)(=O)c4cccc5cccnc45)C3)CC2)c1C (centres undefined)	x	i
N#C/C(=C\c1c[nH]c2ccccc12)C(=O)c1ccc(O)c(O)c1	x	i
COc1ccc2c3c(c(=O)oc2c1OCC(N)=O)CCCC3	u	i
CC(=O)Nc1cccc(OC(=O)N2CCOCC2)c1	>57	i
c1ccc(CSCc2ccccc2)cc1	x	i
CCN(CC)CCNc1ncnc2c1[nH]c1ccc(OC)cc12	>11	x
CC1=C(C(=O)OCc2ccccc2)C(C2CCCCC2)NC(=O)N1CCCCCC(=O)O (centres undefined)	x	i
O=S(=O)(c1ccccc1)N(Cc1nc(-c2ccccc2)no1)C1CCCCC1	>57	i
Cc1ccc(Cn2nnc3c(=O)[nH]c(C(=O)NCc4ccco4)nc32)cc1	>57	i
COc1ccccc1/C=N/n1cnnc1	x	i
CCOC(=O)N1CCN(S(=O)(=O)c2ccc(OCC)c(C)c2)CC1	>57	i
COc1cc(C(=S)N2CCCC2)ccc1O	>57	i
COc1ccccc1-c1cc(N)n(S(=O)(=O)c2ccc(F)c(C)c2)n1	x	i
Cc1ccc(-n2nnnc2SCC(=O)c2cc(C)n(-c3cc(C)on3)c2C)cc1	>57	i
CC(C)CNc1nc(Oc2ccc(=O)n(C)n2)nc(N2CCOCC2)n1	>57	i
Clc1ccc(-c2nn3c(-c4ccncc4)nnc3s2)c(Cl)c1	>57	i
Cn1c(=O)cc(OCCCC(=O)N2CCN(Cc3ccc4c(c3)OCO4)CC2)c2ccccc21	>57	i
Cc1c(Br)c(=O)[nH]c(=O)n1COCc1ccccc1	>57	i
COC(=O)c1[nH]c2cccc(C)c2c1NC(=O)CN1CCCc2ccccc21	>57	i
CCOc1ccc(NC(=O)CN2C(=O)COc3ccc(Cl)cc32)cc1	x	i
COc1ccc2nc3oc(C(=O)N4CCC(C(N)=O)CC4)cc3cc2c1	x	i
COc1cccc(Cn2c(=O)c(-c3cccc(C#N)c3)nc3cnc(OC)nc32)c1	x	i
Nc1ccc(C(=O)OCc2nc3ccccc3[nH]2)cc1	>57	i
Nc1ccc(S(=O)(=O)c2cccc(N)c2)cc1	>57	i
COCCNCC(=O)C12CC3CC(CC(C3)C1)C2	>57	i
O=C(C1COc2ccccc2O1)N1CCN(c2ccccc2F)CC1 (centres undefined)	x	i
Cn1c(=O)c2c3c(sc2n2c(SCC(N)=O)nnc12)CC(C(C)(C)C)CC3 (centres undefined)	>26	x
CCCOC(=O)Cc1n[nH]c(=O)[nH]c1=O	>57	i
COc1cc2cc(C(=O)O)n(C)c2c(OC)c1OC	>57	i

A stretch from the list above:
SMILES	PK Bst	TsaE inh
COc1ccccc1/C=N/n1cnnc1	x	i
CCOC(=O)N1CCN(S(=O)(=O)c2ccc(OCC)c(C)c2)CC1	>57	i

Other structures follow:
SMILES	PK Bst	TsaE inh
COc1ccc(-c2cc(C(=O)N3CC4(C)CC3CC(C)(C)C4)no2)cc1 (centres undefined)	>57	i
O=C(CSc1ncnc2sc3c(c12)CCCC3)N1CCC(c2noc3ccc(F)cc23)CC1	>57	i
CCOC(=O)c1cccc(NC(=O)CSc2nnc(-c3cccnc3)n2CC)c1	>57	i
NC(=O)COc1ccc(C2c3c(oc4ccccc4c3=O)C(=O)N2CC2CCCO2)cc1 (centres undefined)	>57	i
O=C1c2ccccc2S(=O)(=O)N1CCCCN1CCN(c2ncccn2)CC1	x	i
CCOC(=O)N1CCN(c2nc(=S)n(-c3ccccc3)c(C)c2C(C)=O)CC1	x	i
Cc1c(NS(=O)(=O)c2ccc3c(c2)n(C)c(=O)n3C)c(=O)n(-c2ccccc2)n1C	>57	i
CN(C)S(=O)(=O)c1ccc(-c2ccccc2)cc1	x	i
CCOC(=O)NC(NC(=O)OCC)C(=O)c1ccccc1	>57	i
CN(C)c1ccc(C2N(c3cccc(Cl)c3)C(=O)C3CCCN32)cc1 (centres undefined)	x	i
COc1ccccc1N1CCN(C(=O)Cn2nnc(-c3ccncc3)n2)CC1	>57	i
Cc1noc(C)c1-c1nccc(Nc2ccc(F)cc2)n1	x	i
CCS(=O)(=O)N1CCCC(C(=O)NCc2ccccc2Cl)C1 (centres undefined)	>57	i
COc1ccccc1N1CCN(c2nc(C)nc3c2oc2ccccc23)CC1	>57	i
COc1ccc(OC)c2[nH]c(=O)c(CCNC(=O)COc3ccccc3)cc12	u	i
O=C(c1ccco1)N1CCC2(CC1)CN(c1cccc(-c3ccccc3)c1)C2	x	i
COc1ccc(-c2cc(C(F)(F)F)nc(SCCC(=O)NCc3ccco3)n2)cc1	>57	i
COc1ccc(-c2nc(-c3ccccc3)no2)c(OC)c1	0.55*	i
O=C(O)C1C2C=CC3(CN(Cc4ccncc4)C(=O)C13)O2 (centres undefined)	>57	i
CCn1c(=O)[nH]c2ccccc21	x	i
O=C(O)c1ccc(Cl)cc1NC(=O)C1CCCO1 (centres undefined)	>57	i
COc1ccc(S(=O)(=O)N(C)CC(=O)NC2CCCCC2)cc1OC	>57	i
CCCCN1CC(C(=O)NC2CCCCC2)CC1=O (centres undefined)	>57	i
COc1ccccc1NC(=O)c1cc(Cl)ccc1NC(=O)c1ccco1	>57	i
COc1cccc(C2C3CN(C)CC=C3C(C#N)=C(N)C2(C#N)C#N)c1OC (centres undefined)	>57	i
O=C(O)c1ccccc1NC(=O)C1CCCO1 (centres undefined)	>57	i
COc1cccc(Nc2ncc3nc(CCc4ccccc4)c(=O)n(C4CC4)c3n2)c1	x	i
CCn1nnnc1SCC(=O)Nc1cccc(C)n1	>57	i
CCOC(=O)CNC(=O)C(NC(=O)C1CCC(C)CC1)C(C)CC (centres undefined)	>57	i
COC(=O)c1ccc(CS(=O)(=O)c2ccccc2C)o1	>57	i
O=c1oc2ccccc2cc1-c1nnc(-c2cccc(Br)c2)o1	>57	i
Cn1c(=O)c2c(nc(N3CCOCC3)n2CC(=O)c2ccccc2)n(C)c1=O	>57	i
COc1ccccc1-c1cc(C(F)(F)F)nc(S(=O)(=O)CCCC(=O)Nc2cc(C)on2)n1	>57	i
Cc1cc(C)n(-c2nc(NC(C)(C)C)nc(NC(C)(C)C)n2)n1	x	i
COc1ccc(S(=O)(=O)N2CCN(S(=O)(=O)c3ccc4c(c3)OCCO4)CC2)cc1	>57	i
Cn1cccc1P(=O)(c1cccn1C)c1cccn1C	>57	i
COc1ccccc1N1CCN(C(=O)c2ccc(S(=O)(=O)N3CCCC3)cc2)CC1	>57	i
Cn1c(=O)c2c(nc(N3CCCCCC3)n2Cc2cccc3ccccc23)n(C)c1=O	>57	i
CCn1cc(C(=O)N2CCN(C3CCCCC3)CC2)c2cc(OC)c(OC)cc2c1=O	>57	i
CCn1c(COc2ccccc2)nnc1SCC(=O)CC(=O)Nc1ccccc1OC	>57	i

Fetched by structure from the entries so far, 2 records:
SMILES	PK Bst	TsaE inh
COc1ccc(S(=O)(=O)N2CCN(S(=O)(=O)c3ccc4c(c3)OCCO4)CC2)cc1	>57	i
O=C(O)c1ccccc1NC(=O)C1CCCO1 (centres undefined)	>57	i

Additional records follow.
SMILES	PK Bst	TsaE inh
CCOC(=O)c1c(NC(=O)CSc2nnc(CNC(=O)c3ccco3)n2C)sc2c1CCC2	>57	i
Cc1ccc(-c2csc(N3CCC(C(N)=O)(N4CCCCC4)CC3)n2)cc1	x	i
CCCCCCN(C(=O)CCCCCN1C(=O)NC(c2ccc(-c3ccccc3)cc2)C(C(=O)OCc2ccccc2)=C1C)C(C(=O)NCCCC)c1ccc(OCC(=O)O)c(C(=O)O)c1 (centres undefined)	x	i
COc1cccc(-c2cc(C(=O)N3CCCc4ccccc43)no2)c1	x	i
CN1CCc2cccc3c2[C@H]1Cc1ccc(O)c(O)c1-3	x	i
CN(Cc1cccs1)C(=O)COc1ccc(-c2nnco2)cc1	>57	i
c1ccc(CNc2ncnc3nc[nH]c23)cc1	x	i
O=C(CCCN1CCN(c2ccccn2)CC1)c1ccc(F)cc1	x	i
Cc1c2c(nc3ccccc13)OCC2	x	i
O=C(O)CCc1ccc(-c2cccs2)n1NC(=O)c1ccc(O)cc1	>57	i
NC(=O)C[C@H](N)C(N)=O	x	i
CC1(C(=O)CSc2nc3ccccc3[nH]2)CCC(=O)O1 (centres undefined)	>26	x
Cn1cnnc1SCC(=O)c1ccc2c(c1)CCCC2	x	i
COc1ccc(CCn2nnnc2C(CC(C)C)N2CCC(C(N)=O)CC2)cc1OC (centres undefined)	>57	i
CC(=O)O[C@H]1C(=O)[C@@]2(C)[C@H]([C@H](OC(=O)c3ccccc3)[C@]3(O)C[C@H](OC(=O)[C@H](O)[C@@H](NC(=O)c4ccccc4)c4ccccc4)C(C)=C1C3(C)C)[C@]1(OC(C)=O)CO[C@@H]1C[C@@H]2O	x	i
CC(C)=CCl	x	i
O=C1N[C@@H](Cc2cnc[nH]2)C(=O)N2CCC[C@@H]12	>26	x
COC(=O)Cc1c(C)nc2nc(NCc3ccc(Cl)cc3)[nH]n2c1=O	i	i
CN1CCN(CC(=O)Nc2ccc(Oc3ccccc3)cc2)CC1	>57	i
O=C(CC1C(=O)OCN1C(=O)OCc1ccccc1)OCC(=O)c1ccccc1 (centres undefined)	>57	i

Arranged by count of non-hydrogen atoms (smallest number first): part of the list above
SMILES	PK Bst	TsaE inh
CN1CCc2cccc3c2[C@H]1Cc1ccc(O)c(O)c1-3	x	i
O=C(CCCN1CCN(c2ccccn2)CC1)c1ccc(F)cc1	x	i
COc1cccc(-c2cc(C(=O)N3CCCc4ccccc43)no2)c1	x	i

New compounds follow
SMILES	PK Bst	TsaE inh
CCCCNC(=O)Nc1ccc(Br)cn1	>57	i
COC(=O)c1[nH]c2ccc(Cl)cc2c1NC(=O)C1CC1	>26	x
C=CCn1c(=O)c(C(=O)Nc2nnc(C)s2)c(O)c2ccccc21	>57	i
Cn1c(SCc2nnc(-c3ccccc3Br)o2)nc2sc3c(c2c1=O)CCC3	>57	i
CCC(=O)N1CC23C=CC(CC2CC12CCCCC2)O3 (centres undefined)	x	i
CC1(C(=O)NCCCNc2ncc(C(F)(F)F)cc2Cl)C=CC2(CCCCC2)N1C(=O)c1ccccc1 (centres undefined)	x	i
Nc1c(C(=O)NCCN2CCOCC2)c2nc3ccccc3nc2n1CCc1ccccc1	x	i

Shown in CSV form: part of the list above
Structure,PK Bst,TsaE inh
C=CCn1c(=O)c(C(=O)Nc2nnc(C)s2)c(O)c2ccccc21,>57,i
Cn1c(SCc2nnc(-c3ccccc3Br)o2)nc2sc3c(c2c1=O)CCC3,>57,i
CCC(=O)N1CC23C=CC(CC2CC12CCCCC2)O3 (centres undefined),x,i
CC1(C(=O)NCCCNc2ncc(C(F)(F)F)cc2Cl)C=CC2(CCCCC2)N1C(=O)c1ccccc1 (centres undefined),x,i
Nc1c(C(=O)NCCN2CCOCC2)c2nc3ccccc3nc2n1CCc1ccccc1,x,i

A portion of the library; rates above refer to the full screens.
